# Ecoli growth – E. coli growth inhibition, primary screen, OD600; Escherichia coli growth, 23 h; hits give low values; OD600 absorbance (no concentration beside the values); actives 0.21% (n = 330,000);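 active means OD600 absorbance below the run mean of sample wells minus 3.6 SD, in any replicate, cut at about 0.56 in these data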;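 further: stock transfer was 300 nL into about 60 µL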
# ALR inh – inhibitors of human ALR sulfhydryl oxidase, primary screen, biochemical, H2O2 detection, HRP-luminol luminescence, single point; FAD-linked sulfhydryl oxidase ALR (Homo sapiens), P55789; purified ALR, DTT oxidation; inhibition, % (no concentration beside the values); actives 3.8% (n = 290,000); AID 485317, 2010;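 active means mean and each replicate at 75% or more; inconclusive means only one of the two met; inactive means neither met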;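 further: stock transfer was 7.5 nL into about 7.5 µL; 0% = neutral wells and 100% = wells with inactivated enzyme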
# Target sequence (P55789 whole entry, looked up): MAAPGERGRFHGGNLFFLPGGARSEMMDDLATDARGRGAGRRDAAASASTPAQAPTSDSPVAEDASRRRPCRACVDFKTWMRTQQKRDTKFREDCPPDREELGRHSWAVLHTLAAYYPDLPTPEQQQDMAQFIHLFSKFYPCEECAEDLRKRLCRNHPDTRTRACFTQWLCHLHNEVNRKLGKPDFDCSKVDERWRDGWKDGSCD
# FGF22 binding – binders of human FGF22 protein, primary screen, FGF22 synaptogenesis inhibitor project, biophysical, thermal shift, single point. Fibroblast growth factor 22 (Homo sapiens), Q9HCT0. recombinant FGF22 thermal shift, SYPRO orange fluorescence; percent of sucrose octasulfate shift, DMSO zero. calls only at 9.99 µM. actives 1.5% (n = 340,000). AID 651658, 2012;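 active means melting point raised past a set limit in the mean and every replicate; inconclusive means no clear call; three in four hits are not shown here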
# LANA-H2B inh – blockers of LANA interaction with H2A/H2B – biochemical, FP readout, HTS, primary screen; cell-free LANA-H2A/H2B peptide, fluorescence polarization; inhibition, % (no concentration beside the values); actives 0.6% (n = 320,000); in the data active means inhibition mostly above about 10%, no sharp cut-off; inactive means mostly below about 6.7%;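 further: stock transfer was 7.5 nL into about 10 µL; 0% = median of vehicle wells and 100% = median of positive control wells; one replicate is shown; the record names a cut of 25% in any replicate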
# HNF4A DNA FP – change in binding of human HNF4A to DNA, primary screen, biochemical, fluorescence polarization, FITC-DNA | 1 h | activity change, % at 10 µM | actives 0.3% (n = 360,000) | Hepatocyte nuclear factor 4-alpha (Homo sapiens), P41235; in the data active means activity change above about 30%, passing the limit was not always enough;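 further: controls were the assay level and a saturating level of protein; the project sought stronger binding though the title names inhibitors; some compounds called inactive have numbers as strong as hits; positive values seem to mean higher polarization but the record does not say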
# Target sequence (P41235 whole entry, looked up): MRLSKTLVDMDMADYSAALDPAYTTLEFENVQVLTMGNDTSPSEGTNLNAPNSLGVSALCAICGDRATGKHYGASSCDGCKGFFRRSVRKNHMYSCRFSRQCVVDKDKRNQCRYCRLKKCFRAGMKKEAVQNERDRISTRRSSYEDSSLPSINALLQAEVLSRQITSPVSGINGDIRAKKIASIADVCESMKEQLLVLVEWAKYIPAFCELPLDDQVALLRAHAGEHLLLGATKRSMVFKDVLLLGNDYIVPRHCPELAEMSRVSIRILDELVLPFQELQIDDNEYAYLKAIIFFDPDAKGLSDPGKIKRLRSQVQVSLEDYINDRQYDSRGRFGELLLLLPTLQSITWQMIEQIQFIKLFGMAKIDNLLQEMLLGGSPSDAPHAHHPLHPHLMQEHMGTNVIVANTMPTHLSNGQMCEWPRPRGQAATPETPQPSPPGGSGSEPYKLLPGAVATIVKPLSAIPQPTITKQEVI
# UCH37 DUB inh – inhibitors of human UCH37 deubiquitinase, primary screen, biochemical, Ub-AMC cleavage, fluorescence | Ubiquitin carboxyl-terminal hydrolase isozyme L5 (Homo sapiens), Q9Y5K5 | purified proteasome/UCH37 | inhibition, % (concentration not given with the values) | actives 0.33% (n = 330,000);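 active means mean of two replicates above 20%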;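 further: 0% = compound-free wells with enzyme and 100% = wells lacking proteasome; stock transfer was 100 nL into about 20 µL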
#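 Reagent: Ub-AMC substrate; assay system: Proteasome-associated human UCH37 deubiquitinase; controls: no-proteasome and no-compound wells; read-out: % inhibition of Ub-AMC cleavage fluorescence; timing: 30 min preincubation with enzyme, 25 min cleavage at room temperature; signal: AMC fluorescence from Ub-AMC cleavage, excitation 355 nm, emission 460 nm; buffer or medium: Tris-HCl pH 7.4 plus ovalbumin, ATP-MgCl2, DTT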
# Beta2AR agonist – beta2AR agonists driving receptor internalization, primary screen, cell-based, FAP fluorogen, flow cytometry | Am2.2-beta2AR cells; reference of the scale not given here | response, % (no concentration beside the values) | actives 0.43% (n = 340,000) | Beta-2 adrenergic receptor (Homo sapiens), P07550;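 active means response above a set limit, near 3 SD of response in nonfluorescent compounds, cut at about 42% in these data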;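 further: stock transfer was 100 nL into about 11 µL; a reference agonist was the positive control; negative values mostly stem from fluorescent compounds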
# Target sequence (P07550 whole entry, looked up): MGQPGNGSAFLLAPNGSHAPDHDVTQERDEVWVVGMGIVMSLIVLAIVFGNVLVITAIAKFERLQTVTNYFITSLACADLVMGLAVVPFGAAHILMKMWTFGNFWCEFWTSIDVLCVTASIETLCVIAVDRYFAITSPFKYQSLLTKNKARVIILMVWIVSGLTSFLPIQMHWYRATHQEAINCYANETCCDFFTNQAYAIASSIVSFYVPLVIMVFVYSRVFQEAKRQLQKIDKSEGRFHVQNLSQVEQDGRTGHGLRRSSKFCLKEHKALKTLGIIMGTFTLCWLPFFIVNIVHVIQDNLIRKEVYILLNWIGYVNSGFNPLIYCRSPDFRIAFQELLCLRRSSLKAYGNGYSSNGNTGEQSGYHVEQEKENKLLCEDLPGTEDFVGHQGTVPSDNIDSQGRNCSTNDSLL
# Numbers without * were called inactive; i = inactive; ? = inconclusive; / = no result given.
SMILES,Ecoli growth,ALR inh,FGF22 binding,LANA-H2B inh,HNF4A DNA FP,UCH37 DUB inh,Beta2AR agonist
O=C(Nc1nnc(S(=O)(=O)Cc2ccc(F)cc2)s1)c1ccccc1F,0.65,10,/,-1.8,-0.2,6.1,12
O=C(Nc1c(-c2ccccc2)nc2ccccn12)c1ccccc1,0.67,13,i,-0.7,2.7,1.0,-7
Cc1ccc(O)c(-n2nc3ccccc3n2)c1,0.69,-11,/,4.1,2.8,1.9,-5
CCN(CC)S(=O)(=O)c1ccc(N2CCOCC2)c(NC(=O)COc2ccc(C#N)cc2)c1,0.67,/,i,/,0.1,1.0,3
O=C(/C=C/c1ccc([N+](=O)[O-])cc1)NCc1cccs1,0.67,29,/,-7.3,-3.1,3.3,-13
CCN(CC)S(=O)(=O)c1ccc(C)c(NC(=O)Cn2cnc3cc([N+](=O)[O-])ccc3c2=O)c1,0.66,-19,i,3.8,-2.3,-2.6,-14
O=C1NN(c2ccccc2)C(=O)/C1=C\c1cccc(OC(=O)c2cccs2)c1,0.76,89*,/,-4.4,-4.0,7.5,19
O=C(OCC(=O)N(C1CCCCC1)C1CCCCC1)c1ccncc1,0.76,2,/,-0.2,-3.1,3.2,-1
O=C(Cc1ccc(Br)cc1)N1CCN(C(=O)c2ccco2)CC1,0.7,1,i,4.8,0.8,2.7,-6
COc1ccc(OC)c(CN(CCN2CCOCC2)C(=O)Nc2cccc(Cl)c2)c1,0.68,-16,/,2.6,0.2,2.1,-1
CCN(CC)C(=O)c1ccc(-c2nnc(OC)c3ccccc23)cc1,0.68,-10,i,5.7,-1.6,-2.5,-3
CCOC(=O)C1CCCN(C(=O)Cn2cccc2C(=O)c2ccccc2)C1 (centres undefined),0.69,-6,/,0.1,-0.9,7.2,-3
COc1ccc(NC(=S)Nn2cnnc2)cc1OC,0.7,/,i,-3.7,-2.7,2.3,2
COC(=O)c1ccc(Cn2nnc3c(=O)[nH]c(C4CCCN(S(=O)(=O)c5cccc(Cl)c5)C4)nc32)cc1 (centres undefined),0.7,-12,i,2.7,1.1,3.8,8
Cc1ccc(CN2CCN(Cc3cnc(N4CCOCC4)s3)CC2CCO)cc1 (centres undefined),0.69,-7,/,1.1,5.3,3.6,-8
COc1ccc2c(c1)C(=O)C(=O)N2CCS(=O)(=O)c1ccccc1,0.69,-7,i,-1.9,1.6,4.2,1
Cc1[nH]c2ccccc2c1/C=N/NC(=O)c1cc(-c2ccccc2)n[nH]1,/,/,i,4.0,-0.7,/,28
C[C@H]1CNC(=O)C(=O)N1C[C@H](Cc1ccc(O)cc1)NC(=O)CC12CC3CC(CC(C3)C1)C2,/,6,i,3.9,0.7,1.2,0
Cc1cccc(C(=O)NN/C=C/C(=O)c2ccccc2)c1,0.61,5,i,-3.7,0.6,3.8,7
Cc1cc([N+](=O)[O-])ccc1NC(=O)c1cccc(NC(=O)C(C)C)c1,0.71,-4,i,4.4,0.3,4.4,-11
CCOc1ccccc1NC(=O)CSc1nnc(CNC(=O)c2cc(OC)c(OC)c(OC)c2)o1,0.61,-32,i,2.0,-3.3,1.1,9
COc1ccc(CN(C2CCCCC2C)S(=O)(=O)c2ccc(S(=O)(=O)N(C)C)cc2)cc1OC (centres undefined),0.76,2,i,-3.3,-1.9,1.5,7
Cc1ccc(S(=O)(=O)N2CCC(=O)N(CCOCc3ccc(Cl)cc3)CC2)cc1,0.65,-8,i,1.0,0.1,-0.5,0
FC(F)Sc1ccc(-n2cc(-c3ccccc3)[n+]3c2CCC3)cc1,0.69,-8,/,5.2,-2.8,2.6,-9
COc1ccc2c(-c3ccc(SC)cc3)c(-c3ccc(S(C)(=O)=O)cc3)sc2c1,/,3,i,3.6,0.0,-72,-3

# The last 2 compounds of the part before lead into the next.
SMILES,Ecoli growth,ALR inh,FGF22 binding,LANA-H2B inh,HNF4A DNA FP,UCH37 DUB inh,Beta2AR agonist
FC(F)Sc1ccc(-n2cc(-c3ccccc3)[n+]3c2CCC3)cc1,0.69,-8,/,5.2,-2.8,2.6,-9
COc1ccc2c(-c3ccc(SC)cc3)c(-c3ccc(S(C)(=O)=O)cc3)sc2c1,/,3,i,3.6,0.0,-72,-3
Cc1ccccc1OCc1nnc(SCc2cc(=O)[nH]c3ccccc23)n1-c1ccccc1,0.64,0,i,-2.8,-3.2,5.2,-20
O=C(COC(=O)Cc1n[nH]c(=O)c2ccccc12)Nc1c(Br)cc([N+](=O)[O-])cc1Br,0.69,/,i,/,-1.8,2.6,-1
Cn1c(SCc2ccccc2)nc2c1c(=O)[nH]c(=O)n2C,0.68,-6,i,-2.3,-2.2,4.1,7
COc1ccc(C(=O)COC(=O)CN2C(=O)c3ccccc3C2=O)c(OC)c1,0.72,-7,i,0.4,2.4,-1.5,-2
CCS(=O)(=O)c1cc([N+](=O)[O-])c(Sc2ccccc2N)s1,0.65,?,i,-2.9,-0.7,8.0,5
S=c1[nH]nc(-c2ccco2)n1-c1cccc2ccccc12,0.66,16,/,3.9,-1.3,0.3,7
CC(=O)C[C@@H](O)CC(=O)[C@H]1OC(=O)[C@H](C)C/C=C\Cc2ccccc21,0.71,/,i,6.7,4.2,5.3,-5
CCCCN(C(=O)c1ccco1)c1nnc(-c2cc(OC)c(OC)c(OC)c2)s1,0.71,/,/,-2.6,-3.2,-163,-6
COc1ccc(CNC(=O)c2cnccn2)cc1,0.7,-3,/,0.8,-4.2,6.3,-4
COc1ccc(-c2csc(NC(=O)C3CSC4(C)CCC(=O)N34)n2)c(OC)c1 (centres undefined),0.68,/,i,/,1.6,6.5,8
Cc1cccc(OCCC(=O)NCC(c2ccccc2)N(C)C)c1 (centres undefined),0.68,-4,/,1.1,-1.6,0.0,-3
Cc1cc(NC(=O)CCCN2C(=O)c3cccnc3C2=O)ccc1Br,0.71,4,i,-0.4,0.3,1.7,-2
CCn1c(-c2ccccc2Cl)nn(CC(=O)NCCc2ccccc2)c1=S,0.71,-2,/,0.7,3.1,-0.1,1
Cc1ccc(C)c(NCC(=O)c2ccc(Cl)cc2)c1,0.68,-7,i,2.0,1.4,1.3,14
CCc1ccc(C(=O)COC(=O)CNC(=O)c2ccc(N3C(=O)c4ccccc4C3=O)cc2)cc1,0.72,-21,/,-5.6,-3.8,2.9,2
COc1ccc(N(CC(=O)N2CCN(c3ccccc3F)CC2)S(=O)(=O)c2c(C)noc2C)cc1,0.69,2,i,-2.2,1.2,6.0,4
COC(=O)c1ccccc1NC(=O)c1nc2nc(C)cc(C)n2n1,0.74,-3,/,5.2,-4.5,3.9,2
O=C(CNC(=O)c1ccccc1)N/N=C/c1ccc([N+](=O)[O-])o1,/,-29,/,-2.6,1.5,/,10
O=C(Nc1ccccc1)c1ccccc1Oc1ccc(C(F)(F)F)cc1[N+](=O)[O-],0.67,-10,i,7.6,-3.0,1.3,12
Cc1ccc(NC(=O)Cc2nnc(SCC(=O)Nc3ccccc3)n2C)cc1,0.69,1,/,1.2,-0.1,0.9,-17
CCSc1nnc(-c2cc3c(s2)-c2ccccc2CC3)o1,0.72,-20,/,-10,0.3,-444,9
Cc1[nH]n(-c2ccc([N+](=O)[O-])cc2)c(=O)c1C=NCCN1CCN(C(=O)C(C)C)CC1,0.65,-1,i,0.2,2.1,14,1
CCCNc1c(NS(=O)(=O)c2cccc(C#N)c2)c(=O)oc2ccccc12,0.68,5,i,2.1,-0.3,0.6,4
C[N+](C)(C)CC(=O)N1CCN(c2ccc3ccccc3n2)CC1,0.64,-16,i,1.3,-0.3,-93,-13
O=C(NC(Cc1ccccc1)C(=O)O)/C(=C/c1ccco1)NC(=O)c1cccc([N+](=O)[O-])c1 (centres undefined),0.7,-18,i,-0.7,0.9,3.9,4
SMILES,Ecoli growth,ALR inh,FGF22 binding,LANA-H2B inh,HNF4A DNA FP,UCH37 DUB inh,Beta2AR agonist
O=c1[nH]c(/C=C/c2ccccc2)c([N+](=O)[O-])c(=O)[nH]1,0.66,14,i,-0.8,-2.2,13,1
FC(F)(F)c1cccc(-c2ccn3ncnc3n2)c1,0.69,-7,i,-2.0,3.7,-8.7,-12
Cc1occc1C(=O)NNC(=S)NCc1ccc(Cl)cc1,0.71,2,i,-2.0,1.1,-0.4,5
Cc1nnc(NC(=O)c2c(-c3ccccc3Cl)noc2C)s1,0.74,-2,i,0.9,6.8,1.8,3
CCOC(Cn1c(SCc2cc(C(C)=O)ccc2OC)nc2ccccc2c1=O)OCC,0.67,-5,i,1.5,-4.5,4.0,0
COc1ccc(CC(=O)N/N=C\c2cc(Br)c(O)c(Br)c2)cc1,/,?,i,1.5,-1.7,/,10
O=C(O)CSc1nnc(Cc2ccccc2)n1Cc1ccccc1,0.71,4,/,4.8,0.5,0.5,-7
N#CC1=C(N)Oc2cc(N)ccc2C1c1ccccc1F (centres undefined),0.69,30,i,-3.9,20,-0.3,-15
CC(C)(C)NC(=O)C(c1ccccn1)N(C(=O)c1csnn1)C1CCCCC1 (centres undefined),0.66,2,i,0.8,-4.0,0.6,4
O=C(NCCC1CCCCN1S(=O)(=O)c1ccc(F)cc1)C(=O)Nc1ccccc1 (centres undefined),0.69,-2,i,1.5,-1.7,1.0,-5
O=C(CN1CCN(Cc2ccccc2)CC1)NCC1COc2ccccc2O1 (centres undefined),0.64,2,/,-5.4,6.0,1.3,-2
CCS(=O)(=O)Nc1ccc(C(=O)c2ccccc2)cc1,0.69,-1,/,-3.0,0.2,6.1,-3
Cc1nc(C(F)(F)F)c(C(=O)NC(=O)Nc2ccccc2)s1,0.67,4,/,3.8,4.7,1.2,2
COc1ccc(S(=O)(=O)N(CC(=O)NC2CCCCC2)c2ccc(F)cc2)cc1,0.73,-4,i,1.5,0.0,-0.4,9
Cc1ccsc1C(=O)OCC(=O)Nc1cccc(S(=O)(=O)NC2=NCCCCC2)c1,/,4,i,-6.2,2.9,/,-4
O=C1c2ccccc2NC(c2ccc(Cl)cc2Cl)N1O (centres undefined),0.74,32,/,1.9,0.7,-1.5,13
CCOc1ccc(OC(=O)C(CCS(C)(=O)=O)N2C(=O)c3ccccc3C2=O)cc1 (centres undefined),0.73,-34,/,3.2,0.0,3.2,7
COc1ccc(C(=O)Nc2cc(-c3ccc(C)cc3)no2)cc1,0.71,-4,i,3.7,2.1,-0.9,-13
Cc1ccc2oc(=O)n(CCC(=O)Nc3ccc(N4CCOCC4)cc3)c2c1,0.69,?,i,-3.8,-1.9,1.6,-5
CC(C)c1cccc(C(C)C)c1NC(=O)c1ccccc1,0.71,/,i,4.0,-4.2,2.6,3
O=C(CCCSc1nc2ccccc2[nH]1)Nc1nnc(-c2ccccc2)o1,0.66,-4,/,-1.4,0.1,4.0,-12

# Looked up above.
# UCH37 DUB inh, FC(F)(F)c1cccc(-c2ccn3ncnc3n2)c1 reads -8.7
# Ecoli growth, Cc1nc(C(F)(F)F)c(C(=O)NC(=O)Nc2ccccc2)s1 reads 0.67
# Beta2AR agonist, O=C(NCCC1CCCCN1S(=O)(=O)c1ccc(F)cc1)C(=O)Nc1ccccc1 (centres undefined) reads -5
# HNF4A DNA FP, COc1ccc(CC(=O)N/N=C\c2cc(Br)c(O)c(Br)c2)cc1 reads -1.7
# Ecoli growth, COc1ccc(S(=O)(=O)N(CC(=O)NC2CCCCC2)c2ccc(F)cc2)cc1 reads 0.73
# Beta2AR agonist, CCOc1ccc(OC(=O)C(CCS(C)(=O)=O)N2C(=O)c3ccccc3C2=O)cc1 (centres undefined) reads 7
# Beta2AR agonist, O=C(O)CSc1nnc(Cc2ccccc2)n1Cc1ccccc1 reads -7

# Assay outcomes deposited in PubChem by several laboratories.

# Not all compounds are listed. The share of hits here may be higher or lower than overall.
